Vaccinia mCherry – inhibitors of vaccinia virus infection (mCherry reporter signal); 310,000 compounds, 0.63% hits; Vaccinia virus mCherry reporter infection, fluorescence; about a quarter of the inactives have no number; Potency, µM (titrated, usually from 36.5 µM), for inactives: at the highest dose activity change, negative = inhibition, hits mostly inhibitors; active = well fitted inhibition curve with a large enough effect; inconclusive = small, poorly fitted or top-dose-only effect; inactive = no such curve, though single readings can be large or run the other way; tested in A549 cells; also: nearly all actives have a fitted effect of over 35% in size; inactives centre near -10
VACV Venus inh – inhibitors of vaccinia virus (Venus reporter). 330,000 compounds, 0.46% hits. Vaccinia virus Venus reporter expression, fluorescence. Potency, µM (doses to about 36.5 µM), inactives show top-dose activity change, negative = inhibition, most hits filed as inhibitors; active means well fitted inhibition curve with a large enough effect; inconclusive means small, poorly fitted or top-dose-only effect; inactive means no such curve, though single readings can be large or run the other way; tested in A549 cells; also: nearly all actives have a fitted effect of over 30% in size; inactives centre near -10
* marks the source's active call; other numbers are inactive results; i = inactive; u = inconclusive; x = not tested or not shown; [ ] = remark or other dose. % is scaled to controls: 0 for no effect and ±100 for the full control effect; potency is read from the fitted curve at half-maximal effect. Compounds as they come. About 0.87% of those tested had a hit in this group.

SMILES	Vaccinia mCherry	VACV Venus inh
O=C(CSc1cn(CCNC(=O)c2cccs2)c2ccccc12)NCc1ccccc1	-20%	-12%
CCc1nnc(NC(=O)c2cc3c(s2)CCCCC3)s1	i	-4%
CC1(C)CC(=O)C=C(c2ccc3[nH]ccc3c2)C1	u	-7%
COc1cccc(CC(=O)Nn2c(C)nc3ccccc3c2=O)c1	i	-5%
COc1ccc(S(=O)(=O)N2CCOCC2)cc1NC(=O)CSc1n[nH]c(C(C)C)n1	i	-17%
COc1ccccc1CN=C1Nc2ccccc2CS1	i	-3%
Cc1ccc(C(=O)N2C(CC(=O)Nc3ccc(Cl)cc3)C(=O)NC3CCCCC32)cc1 (centres undefined)	-22%	-19%
O=C(Nc1ccc(NC(=O)c2ccco2)c(Cl)c1)c1cccc([N+](=O)[O-])c1	i	-7%
CC(C)C(=O)Nc1ccc(N2CCOCC2)c(S(=O)(=O)Nc2ccccc2Cl)c1	-1%	-14%
Cc1ccc(NC(=O)CS(=O)c2ccccc2N)c(C)c1 (centres undefined)	6%	-1%
Cc1ccc(-n2ncc3c(NCCCn4ccnc4)ncnc32)cc1	-10%	-10%
CCOC(=O)c1cccc(C2=C(CNC(=O)c3ccncc3)[C@H]3CC[C@@H](C2)N3Cc2ccccc2)c1	-11%	-21%
O=C(c1ccco1)N1CCN(C2CN(C3CCCCC3)S(=O)(=O)C2)CC1 (centres undefined)	60%[activator]	4%
CC(C)OC(=O)c1cc(=O)[nH]c2ccccc12	-25%	-22%
C=CCNC(=O)/C(=C/c1cn(-c2ccccc2)nc1-c1cccc([N+](=O)[O-])c1)NC(=O)c1ccccc1	-9%	-10%
CCn1c(=O)c2sccc2n(Cc2cccc(C)c2)c1=O	-13%	-7%
CCCCC1=C([O-])C2N=CC=CC2=[N+](c2ccccn2)C1=O (centres undefined)	-10%	4%
COC(=O)CCCC1=CC2=C(c3ccccc3)C(=O)C(C)(OC(=O)C3CCCC3)C(=O)C2=CN1C1CCCCC1 (centres undefined)	-19%	6%
O=C(COC(=O)c1ccc(O)cc1O)Nc1ccc(Cl)cn1	-12%	-6%
CCCn1c(N/N=C\C=C\c2ccccc2)nc2c1c(=O)[nH]c(=O)n2C	u	u
COc1cc(C(=O)N2CCc3ccccc32)c([N+](=O)[O-])cc1OC	-23%	-4%
O=C(c1ccco1)N1CCN(S(=O)(=O)c2ccccc2[N+](=O)[O-])CC1	1%	-3%
CCOC(=O)C1=C(COC(=O)c2ccc(C)s2)NC(=O)NC1C (centres undefined)	-15%	-5%
COc1ccc(S(=O)(=O)N2CCOCC2)cc1	-14%	-5%
O=C(CCl)Nc1cc(S(=O)(=O)N2CCCCCC2)ccc1Cl	u	u
C[C@]12CC[C@@H]3c4ccc(OC(=O)c5ccccc5)cc4CC[C@H]3[C@@H]1CC[C@@H]2O	-7%	4%
COc1ccc(CC(=O)N[C@@H](CCSC)c2nc3ccccc3[nH]2)cc1	i	-11%
CCn1c(=N)c(C(=O)NC2CCCCC2)cc2c(=O)n3cc(C)ccc3nc21	5%	-4%
CCC(Oc1ccccc1)C(=O)Nc1ncc([N+](=O)[O-])s1 (centres undefined)	-24%	u
CC1(C)CC(c2nc(-c3ccc([N+](=O)[O-])cc3)cs2)CCO1 (centres undefined)	-17%	-8%
Cc1nn(Cc2ccccc2Cl)c(C)c1C(=O)Nc1nnc(C2CC2)s1	u	-13%
CC(C)CN(CCNC(=O)c1cn(C)c2ccc(S(=O)(=O)N3CCCCCC3)cc2c1=O)CC(C)C	1%	11%
O=C(Nc1ccccc1Cl)c1cc(C2CCCN(C(=O)c3ccccc3)C2)on1 (centres undefined)	i	-8%
CC1CCCC(C)N1/N=C/c1ccc([N+](=O)[O-])cc1 (centres undefined)	-12%	-10%
Cn1ncc(-c2ccno2)c1C(=O)O	4%	-10%
O=C(CN1C(=O)S/C(=C\C=C\c2ccccc2)C1=O)Nc1ccc(O)cc1	i	-16%
Cc1ccc2nc(Cl)c(/C=N/NC(=O)c3ccccc3O)cc2c1	-12%	-6%
COC(=O)c1c(-c2cccc(C)c2)csc1NC(=O)C1CCCO1 (centres undefined)	i	-5%
Cc1cccc(NC(=S)N2CCN(Cc3ccc4c(c3)OCO4)CC2)c1C	-17%	-11%
CC1CN(S(=O)(=O)c2cccc(-c3csc(-c4ccccc4)n3)c2)CC(C)O1 (centres undefined)	x	u
CC(C)(C)c1ccc(C(=O)N/C(=C\c2cccc([N+](=O)[O-])c2)C(=O)Nc2cccc(C(=O)O)c2)cc1	i	-20%
COc1ccc(/C=C/c2ccncc2)c2ccccc12	-8%	-20%
Cc1ccc(OCCCC(=O)Nc2ccc3c(c2)OCO3)cc1	-16%	-14%
CCC(C)(C)NC(=O)CN(C(=O)c1csnn1)c1ccccc1-c1ccccc1	-10%	0%
CC(=NNC(=S)N1CCCCCC1)c1ccccn1	u	u
O=C(C1=C[C@@H](c2ccccc2)C[C@@H](OCCCCO)O1)N1CCN(Cc2ccc3c(c2)OCO3)CC1	i	-13%
COc1ccc(-c2cc3nc(-c4ccccc4)cc(C(F)(F)F)n3n2)cc1	-3%	4%
COc1cc(/C=C/C(=O)NC(C)C2CC3CCC2C3)cc(OC)c1OC (centres undefined)	i	7%
CCOC(=O)c1ccccc1Nc1cn(C(C)=O)c2ccccc12	-21%	-14%
CCOC(=O)N1CCN(C(=O)C(=O)Nc2sc3c(c2C#N)CC(C)(C)OC3)CC1	-11%	-11%
COC(c1ccccc1)c1nc2ccccc2[nH]c1=O (centres undefined)	-9%	-7%
Cc1cccc(C(=O)N2CCC(=O)N([C@H](COCc3cccc(Cl)c3)Cc3ccccc3)CC2)c1	-1%	-6%
O=C1NC(c2ccc(Br)cc2)Nc2ccccc21 (centres undefined)	-25%	u
COc1c(C)cc(S(=O)(=O)NCc2ccco2)c(C)c1C	-13%	-1%
C=CCN1N=C(c2ccc(NC(=O)c3ccccc3)cc2)CSC1=O	i	u
CC1=CC2C(C3C=CC2(C)C(=O)C3(C)O)C(C)(O)C1=O (centres undefined)	i	-2%
Cc1cc(N(C)C)ccc1/C=C/c1ccnc2ccccc12	-19%	18%
CS(=O)(=O)N(CC(=O)Nc1c(F)cccc1F)c1ccc(C23CC4CC(CC(C4)C2)C3)cc1	-20%	-18%
Cc1cc(C)cc(Nc2cc(C(=O)NC3CCC(C)CC3)c3ccccc3n2)c1 (centres undefined)	-13%	-11%
C=CCNc1nc(Nc2ccc(OC)cc2)nc(OCC)n1	-1%	-11%

For convenience, 2 of the compounds above:
SMILES	Vaccinia mCherry	VACV Venus inh
Cc1cc(C)cc(Nc2cc(C(=O)NC3CCC(C)CC3)c3ccccc3n2)c1 (centres undefined)	-13%	-11%
C=CCNc1nc(Nc2ccc(OC)cc2)nc(OCC)n1	-1%	-11%

(continued)
SMILES	Vaccinia mCherry	VACV Venus inh
COC(=O)CN1C(=O)C(C)=C(c2ccc(C)cc2)S1(=O)=O	-8%	1%
COc1cc(C2SCCS2)cc(Br)c1Oc1ncccc1[N+](=O)[O-]	-22%	-13%
Cc1ccc(Cn2c(CO)cnc2SCC(=O)NCc2ccccc2Cl)cc1	-9%	-6%
COc1ccc(C)cc1S(=O)(=O)NC1CC1	-9%	-14%
Cc1nn(-c2ccccc2)c(C)c1C(=O)OCC(=O)Nc1ccccc1Cl	i	-3%
Cc1ccc(OCc2cc(C(=O)N(CCO)Cc3cccs3)no2)cc1C	-3%	-18%
Cc1nn(-c2ccccc2)c2nc(C3CC3)cc(C(=O)Nc3ccc(F)cc3)c12	-11%	-19%
Cc1cc(C)cc(Oc2nc3c(C)cccn3c(=O)c2/C=C(\C#N)c2nc3ccccc3[nH]2)c1	-7%	16%
Cn1c(N)c(C(=O)CSc2nnc(-c3cccs3)n2C2CC2)c(=O)[nH]c1=O	-9%	-7%
Cc1ccc(NC(=O)CN(C)C(=O)c2ccc(Br)o2)cc1	-7%	-2%
Cc1cc(C(=O)OCC(=O)N(C)c2ccccc2)ccc1[N+](=O)[O-]	-8%	-6%
COc1cccc(OCCOc2ccccc2OC(C)C)c1	x	1%
O=C1CN(c2ccccc2)C(=O)N1	i[7.34 µM]	-2%[7.34 µM]
Cc1cc(N(C)C)ccc1N=Nc1ccc(N)cc1	-11%	-18%
O=C(OCCN1CCOCC1)C1(c2ccccc2)CCCC1	1%	3%
COc1ccccc1N1CCN(C2CCCN(C(=O)CN3CCCCC3=O)C2)CC1 (centres undefined)	-15%	-8%
CCOC(=O)c1oc2ccccc2c1CSc1nnnn1-c1ccccc1	-10%	-7%
COc1ccc(CNC(=O)/C(C#N)=C2\N=C(NC(=O)c3cccs3)c3ccccc32)cc1	-5%	36%[activator]
O=C(Nc1cccc(C(F)(F)F)c1)Oc1ccc(Cl)c2cccnc12	u	u
CCOC(=O)C(Cc1ccccc1)NC(=O)CCc1nnc2ccc(N3CCOCC3)nn12 (centres undefined)	-14%	-6%

One compound at a time (already shown). Screens in order: Vaccinia mCherry, VACV Venus inh
Record of COC(=O)CN1C(=O)C(C)=C(c2ccc(C)cc2)S1(=O)=O = -8%, 1%
Record of O=C(OCCN1CCOCC1)C1(c2ccccc2)CCCC1 = 1%, 3%
Record of CCOC(=O)c1oc2ccccc2c1CSc1nnnn1-c1ccccc1 = -10%, -7%
Record of COc1ccc(C)cc1S(=O)(=O)NC1CC1 = -9%, -14%
Record of COc1cc(C2SCCS2)cc(Br)c1Oc1ncccc1[N+](=O)[O-] = -22%, -13%

The listing picks up, repeating the 4 entries before the break.
SMILES	Vaccinia mCherry	VACV Venus inh
CCOC(=O)c1oc2ccccc2c1CSc1nnnn1-c1ccccc1	-10%	-7%
COc1ccc(CNC(=O)/C(C#N)=C2\N=C(NC(=O)c3cccs3)c3ccccc32)cc1	-5%	36%[activator]
O=C(Nc1cccc(C(F)(F)F)c1)Oc1ccc(Cl)c2cccnc12	u	u
CCOC(=O)C(Cc1ccccc1)NC(=O)CCc1nnc2ccc(N3CCOCC3)nn12 (centres undefined)	-14%	-6%
Cc1ccc(C(C)C)cc1OCCn1cncn1	i	-16%
O=C1c2cccnc2C(=O)N1Cc1cccs1	-13%	-1%
COc1cccc(CNC(=O)C2(C)CCCCN2C)c1 (centres undefined)	8%	6%
COc1ccc(OCC(=O)Nc2ccccc2-c2ccccc2)cc1	-6%	-22%
O=C(Cc1n[nH]c(=O)c2ccccc12)NCc1ccccn1	-13%	-4%
CCOC(=O)c1cnc(SCC(=O)NNC(=O)c2ccco2)nc1N	i	0%
COc1cccc(OCC(=O)N(C)Cc2nc(-c3cccc(C)c3)no2)c1	-13%	-15%
CN(C)Cc1cccc([N+](=O)[O-])c1O	-1%	-7%
COc1cc(CNCC(O)c2ccccc2)ccc1OCc1ccc(Cl)nc1 (centres undefined)	-12%	-21%
COCCNC(=O)c1ccccc1NC(=O)Cc1ccccc1[N+](=O)[O-]	-17%	-16%
O=S(=O)(NCCc1ccncc1)c1ccccc1	i	-4%
Cc1ccc(C(=O)N2CCN(c3ccc(C(F)(F)F)cn3)CC2)c(C)c1	x	-27%
CC(C)(C)[C@H]1COC(=O)[C@@H](Cc2ccc(F)cc2)C/C=C\C[C@@H](CC(=O)N[C@H](CO)Cc2ccccc2)C(=O)N1	-6%	u
CCn1c(C)nc2cc(C(=O)NNC(=O)c3ccc(Cl)nc3)ccc21	6%	13%
CC1CCCCN1S(=O)(=O)c1ccc(S(=O)(=O)N2CCCC2)cc1 (centres undefined)	-10%	-8%
O=C(COc1ccccc1F)Nc1ccccc1C(=O)OCc1cc(=O)n2nc(C3CC3)sc2n1	-12%	-2%
CC(=O)c1cccc(NC(=O)COC(=O)CCNS(=O)(=O)c2ccccc2)c1	-13%	-3%
O=C(N/N=C/c1ccccc1C(=O)O)c1ccccc1Br	0%	0%
CCOC(=O)C1=C(N)Oc2c(oc(CO)cc2=O)C1c1c(F)cccc1Cl (centres undefined)	-17%	-16%
O=C(Oc1ccc(Cl)c2cccnc12)N1CCCCCC1	-3%[1.46 µM]	-26%
c1ccc(-c2c3ccccc3nc3[nH]c4ccccc4c23)cc1	u	-19%
Cc1nn2c(NCCCN(C)C)c3c(nc2c1-c1ccccc1)CCCC3	-21%[7.34 µM]	-8%[7.34 µM]
Cc1ccccc1OCCNC(=O)c1ccc2ccccc2n1	i	-19%
O=C(NCc1ccco1)c1cccc(S(=O)(=O)N2CCCC2)c1	-9%	7%
COc1ccc(S(=O)(=O)NC(CCSC)C(=O)NC2CCCCC2)cc1 (centres undefined)	i	-1%
COc1cc(OC)c(/C=C/c2ccc3ccccc3[n+]2[O-])c(OC)c1	-10%	-8%
CCn1c(-c2ccccc2Cl)nn(CC(=O)NCCc2ccccc2)c1=S	i	-10%
CCOc1cc(CNc2ncn[nH]2)ccc1OCC(=O)NC(C)(C)C	4%	-4%
Cc1ccc(C)c(N2CCN(S(=O)(=O)c3cnc(N)nc3)CC2)c1	-13%	-5%
NCCCC(N)CC(=O)NCC1NC(=O)C(CO)NC(=O)C(N)CNC(=O)C(C2CCN=C(N)N2)NC(=O)/C(=C\NC(N)=O)NC1=O (centres undefined)	-16%	-8%
Cc1noc(-c2ccc(NC(C)c3ccccc3)c([N+](=O)[O-])c2)n1 (centres undefined)	1%	-5%
c1nc(NC2CCCCC2)c2[nH]cnc2n1	-11%	-22%
C#CCOCCOCCOCCNc1nc(N2CCN(C(=O)[C@H](CCC(=O)O)n3cc(CN)nn3)CC2)nc(N2CCN(C(=O)[C@H](CCCN=C(N)N)n3cc(C(N)[C@@H](C)CC)nn3)CC2)n1 (some centres undefined)	-5%	-22%
CCC(=O)N1CCc2cc(CNS(=O)(=O)c3ccccc3F)ccc21	0%[7.34 µM]	-12%[7.34 µM]

Screens (PubChem BioAssay)
